# Screening data from PubChem BioAssay.
# VDR inh: Inhibitors of the vitamin D receptor (VDR): qHTS. Vitamin D3 receptor (Homo sapiens), P11473. VDR-SRC2-3 peptide fluorescence polarization, 2 h. Potency, µM, for inactives: max response, negative = inhibition, most hits filed as inhibitors. hit rate 0.93% among 400,000; active means well fitted inhibition curve with a large enough effect; inconclusive means small, poorly fitted or top-dose-only effect, or another doubt; inactive means no such curve, though single readings can be large or run the other way; further: series mostly up to about 120 µM
# Target sequence (P11473 whole entry, looked up): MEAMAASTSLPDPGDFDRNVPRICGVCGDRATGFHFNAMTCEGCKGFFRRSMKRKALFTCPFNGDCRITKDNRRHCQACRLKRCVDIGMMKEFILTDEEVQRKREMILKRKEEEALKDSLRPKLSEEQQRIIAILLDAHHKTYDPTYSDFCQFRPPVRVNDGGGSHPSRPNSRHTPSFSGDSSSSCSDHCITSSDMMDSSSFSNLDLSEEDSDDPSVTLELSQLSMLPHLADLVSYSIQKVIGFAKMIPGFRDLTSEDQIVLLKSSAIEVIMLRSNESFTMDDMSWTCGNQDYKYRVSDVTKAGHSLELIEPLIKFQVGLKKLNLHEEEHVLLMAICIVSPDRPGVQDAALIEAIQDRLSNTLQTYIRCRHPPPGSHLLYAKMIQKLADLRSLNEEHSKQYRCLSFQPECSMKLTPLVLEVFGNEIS
#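 Fluorescence polarization assay measuring small-molecule disruption of VDR binding to the coregulator peptide SRC2-3. Compounds were pin-transferred (23 nl) into the reagent mix and incubated 2 h at room temperature before reading.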
# * hit, by the source's call; ? = inconclusive; & = joins results of further samples. On the % scale 0 is the no-effect control and ±100 the full control effect; potency means the concentration at half of the fitted maximal effect. Some of the compounds tested; rates above refer to the full screens.
SMILES,VDR inh
CCOC(=O)C1=C(CN(C)Cc2ccccc2)NC(=O)NC1c1ccc(OC(C)C)cc1 (centres undefined),-22%
COc1cc(C2=CCN(C(C)=O)CC2)ccc1OC(C)=O,1%
CCCCc1ccc(Nc2nc(CCC)cc(=O)[nH]2)cc1,4%
CCCn1c(SCC(=O)Nc2c(CC)cccc2CC)nnc1C(C)C,-17%
O=C(COC(=O)c1ccccc1Cl)NC1CCCCCCC1,5%
Cc1ccccc1CC(=O)N1CCN(C(=O)c2ccco2)CC1,7%
O=C(O)C1=C[C@H](c2ccccc2)C[C@H](OCCCCO)O1,-6%
Cc1ccccc1NC(=O)CSc1nc2[nH]c(=O)cc(O)c2s1,2%
CCOc1ccc(N(C(C)C(=O)Nc2ccc(OC)cc2)S(C)(=O)=O)cc1 (centres undefined),-3%
COC(=O)c1c(C)[nH]c(C)c1-c1ccccc1Cl,-5%
Cc1cc(Nc2cccc(C(=O)O)c2)n2ncnc2n1,-14%
Cc1cccc(Nc2nnc(SCC3CCCCO3)s2)c1C (centres undefined),-13%
COc1ccc(N2C(=O)CN(Cc3ccc(OC)c(OC)c3)C2=S)cc1,-6%
Nc1nc(-c2cc3c(cc2Cl)OCCO3)cs1,5%
Cc1[nH]nc2c1C(c1c[nH]c3ccccc13)C(C#N)=C(N)O2 (centres undefined),-5%
Cc1cc(C)n2nc(SCC(=O)Nc3ccccc3C)nc2n1,6%&-1%
Cc1nc2c(cnn2-c2ccccc2)c(=O)[nH]1,-16%
COc1ccc(-c2cc(C(F)(F)F)nc(NCc3cccs3)n2)cc1,-19%
COc1ccc(OCC(=O)N2CCC(c3nc4ccccc4s3)CC2)cc1,-2%
CCc1ccc(C2C3=C(CC(C)(C)CC3=O)Nc3c2c(=O)[nH]c2nc(C)nn32)cc1 (centres undefined),2%

# Rewritten tab-delimited: part of the list above.
structure	VDR inh
Cc1cc(Nc2cccc(C(=O)O)c2)n2ncnc2n1	-14%
CCCCc1ccc(Nc2nc(CCC)cc(=O)[nH]2)cc1	4%
CCOC(=O)C1=C(CN(C)Cc2ccccc2)NC(=O)NC1c1ccc(OC(C)C)cc1 (centres undefined)	-22%
O=C(COC(=O)c1ccccc1Cl)NC1CCCCCCC1	5%

# The results go on.
SMILES,VDR inh
CCc1c(C)c2ccc(OCC(N)=O)cc2oc1=O,-13%
Cc1ccc2oc(C(=O)Nc3nonc3C)c(C)c2c1,7%
COc1cc2c(cc1OC)C(C(=O)O)C(c1cc(Br)c(O)c(OC)c1)N(C)C2=O (centres undefined),7%
COc1ccc(-c2nc(CSCC(=O)N3CCN(c4cccc(C)c4)C(C)C3)c(C)o2)cc1OC (centres undefined),-11%
CCCCn1c(N)c(N(CCOC)C(=O)COC(=O)COc2ccccc2C#N)c(=O)[nH]c1=O,16%
COCCNCC1C(Oc2ccc(Cl)cc2)C(=O)N1c1ccccc1C (centres undefined),1%
CCCCCCCCCCCC(=O)N/N=C/c1ccco1,3%
CSc1ccc(C2=CC(=O)C[C@H](c3ccc(F)cc3)C2)cc1,-27%
O=C(O)C(O)C(O)c1nc2ccccc2[nH]1 (centres undefined),1%
CC(C)c1ccc(NC(=O)NC2CCN(CC(=O)Nc3cccc4ccccc34)CC2)cc1,-9%
COc1ccc2nc3oc(C(=O)N4CCN(c5cccc(Cl)c5)CC4)cc3cc2c1,11%
CN(C)c1cccc(C(=O)N/N=C/c2ccoc2)c1,12%
COc1ccc(S(=O)(=O)N2CCC(C(=O)N3CCN(C)CC3)CC2)cc1OC,-2%
Cc1ccc(S(=O)(=O)N(CCO)Cc2cc3ccc(C)c(C)c3[nH]c2=O)cc1,11%
CCN(Cc1cc2cc(C)ccc2[nH]c1=O)C(=O)c1cccc([N+](=O)[O-])c1,-7%
CC(C)(C)NC(=O)C[C@H]1C[C@H](C(=O)N2CCCCC2)[C@@]2(CCc3ccccc3)c3[nH]c4cc(-c5ccco5)ccc4c3CCN2C1=O,-14%
CCC(C)C(NC(=O)OCc1ccccc1)C(=O)NC(Cc1ccc(O)cc1)C(=O)OC (centres undefined),-16%
Nc1nonc1-c1noc(CCCN2C(=O)c3ccccc3C2=O)n1,6%
COc1cc2c(cc1OC)Cc1cc(OC)c(OC)cc1Cc1cc(OC)c(OC)cc1C2,-1%
COc1ccc(C2OCC(C)([N+](=O)[O-])CO2)cc1 (centres undefined),-4%
CCS(=O)(=O)c1nc(S(=O)(=O)c2ccc(Cl)cc2)c(N2CCC(O)CC2)s1,-1%
O=C(NCCO)C(=O)NCC1OCCCN1S(=O)(=O)c1cccs1 (centres undefined),-13%
NC(=O)c1cc2cc([N+](=O)[O-])ccc2oc1=O,3%
CCOC(=O)Cc1csc(NS(C)(=O)=O)n1,-20%
COc1ccc(CCNC(=O)CCC(=O)N2CCOc3ccc(C)cc32)cc1OC,6%
c1ccc(-c2ccccc2OCCCCn2ccnc2)cc1,-11%
O=C(COC(=O)Cn1nnc(-c2ccccc2)n1)Nc1ccccc1Br,-9%
COc1ccc(Oc2coc3cc(OC(=O)c4cccs4)ccc3c2=O)cc1,10%
C=CCn1c(O)c(N=NC(=O)CNC(=O)Cc2ccccc2)c2ccccc21,8%
CC(=O)NN1C(=O)c2ccccc2NC1c1ccc(N(C)C)cc1 (centres undefined),13%
Cc1ccc2nc(-c3ccc(NC(=O)CNC4CC4)cc3)sc2c1,1%
COc1ccc(OC)c(/C=C/C(=O)N2CCN(S(=O)(=O)c3ccc(C)cc3C)CC2)c1,13%
COC(=O)C1CCN(c2ccc([N+](=O)[O-])cc2[N+](=O)[O-])CC1,11%
Cc1ccc2c(CNC3CCCCC3)c(C(=O)O)n(Cc3ccc(F)cc3)c2c1,-1%
Cc1ccc(NC(=O)CSC2=NCCN2)cc1,-21%
Cc1onc(-c2ccccc2Cl)c1C(=O)N1CCC(C)CC1,6%
O=C(CCc1ccccc1)Nc1ccc(F)c([N+](=O)[O-])c1,21%
COc1cc(-c2nc(-c3cccnc3)no2)cc(OC)c1OC,-21%
O=C(COc1cccnc1[N+](=O)[O-])Nc1cccc(S(=O)(=O)N2CCCCC2)c1,10%
Cn1nc(C(F)(F)F)c(-c2ccccc2)c1NC(=O)CSCC(=O)O,5%
COc1ccc(-c2nc(N3CCCC3)[nH]c(=O)c2C#N)cc1,-5%
Cc1cc(C(=O)CSc2nnc3c(Cl)cc(Cl)cn23)c(C)n1C,-5%
COCCn1c(=O)c2ccccc2c2ccccc2c1=O,1%
COc1ccc(CCNC(=O)c2cc(C(=O)c3cc(C)ccc3O)cn(CCc3ccc(OC)cc3)c2=O)cc1,-3%
c1csc(-c2nc3ccccc3[nH]2)c1,-13%
O=C(CN1CCN(Cc2ccc3c(c2)OCO3)CC1)Nc1ccc2c(c1)OCCO2,-10%
O=C(CN1C(=O)C(=O)N(Cc2ccco2)C1=O)Nc1ccccc1,-16%
CSc1nnc(-c2cnccn2)n1C,10%
CCOC(=O)c1ccc(N2CCOCC2)c(NC(=O)c2nccnc2C(=O)O)c1,-5%
Cc1ccc(C(=O)N2CCCC(C(F)(F)F)C2)cc1S(=O)(=O)N1CCOCC1 (centres undefined),12%
O=C1OC2(c3cc(I)c(O)c(I)c3Oc3c2cc(I)c(O)c3I)c2c(Cl)c(Cl)c(Cl)c(Cl)c21,5µM*
CC(C)(C)OC(=O)NCCCC[C@@H](C(=O)N1CCN(C(=O)OC(C)(C)C)CC1)n1cc(CCC(=O)O)nn1,-14%
COc1ccc(/C=C2\C(=O)OCc3cc(OC)c(OC)cc32)cc1OC,-8%
O=C(O)C1=C[C@H](c2cccs2)C[C@H](OCc2ccc(CO)cc2)O1,-5%
O=[N+]([O-])/C=C/c1cn(Cc2ccccc2)c2ccccc12,14µM*
Cc1nnc(SCC(=O)c2ccc(Br)cc2)s1,-5%
Cc1cccc(-c2nc(CS(=O)CC(=O)N3CC(C)CC(C)C3)c(C)o2)c1 (centres undefined),-19%
NC(=O)C1CCN(c2nc(-c3cccs3)cs2)CC1,-7%
O=C(NCc1ccc(Cl)cc1)C1CCN(S(=O)(=O)c2ccc(N3CCCC3=O)cc2)CC1,4%
NC(=O)c1ccc2c(c1)OCCO2,5%
# Going on with the list.
SMILES,VDR inh
CCCCCC(=O)Nc1cccc(C2=NOC3(C2)C[C@H](C(N)=O)N(C(=O)c2ccccc2)C3)c1 (some centres undefined),19%
COc1ccc(OC(=O)c2cccc([N+](=O)[O-])c2)c(C(=O)/C=C/c2cccs2)c1,-20%
CCOC(=O)N1CCC(NCCNC(=O)c2ccccc2)CC1,-5%&8%
CCOc1ccc(CNC(=O)CCCn2nc(C)c3c(C)n(-c4ccc(C)cc4)nc3c2=O)cc1,-16%&5%
COc1cc(OC)cc(C(=O)NCCS(=O)(=O)N2CCN(Cc3ccccc3)CC2)c1,21%
COc1ccc(N(C)S(=O)(=O)c2cccc(C(=O)N3CCN(S(=O)(=O)c4ccc(C)cc4)CC3)c2)cc1,-20%
Cc1ccc(S(=O)(=O)c2cnc3cc(C)nn3c2N)cc1,12%
Cc1ccccc1OCC(=O)Nc1ccc(-c2nc3ccccc3o2)cc1,7%
O=C1OC2(CCCCC2)OC(=O)C1=CNc1nccs1,1%
Cc1nc(NC(=O)/C=C/c2ccccc2)sc1C(=O)Nc1ccccc1Cl,-1%
O=C(CN1C(=O)NC2(CCCCC2)C1=O)Nc1cc(C(F)(F)F)ccc1N1CCCC1,-7%
CN(C)NC(=S)Nc1ccc(Cl)cc1,-8%
COc1cc(/C=N/Nc2nn3cnnc3c3ccccc23)ccc1O,-2%
Cc1cccc2cc(CN(Cc3nnnn3C3CCCCC3)C3CCCC3)c3nnnn3c12,13%
CCOc1ccc(CN2CCNC(=O)C2CC(=O)NCc2csc(C)n2)cc1 (centres undefined),11%
COCc1cc(C)nc(NCCO)c1C#N,-7%
CCOc1ccc(/C=N/Nc2ccccn2)cc1OC,-15%
O=C(NCCC(=O)N1CCCC(C(F)(F)F)C1)c1ccc(Br)cc1 (centres undefined),-1%
C/C(Cn1nc([N+](=O)[O-])cc1C)=N\NC(=O)c1ccc(C(C)(C)C)cc1,-15%
Cc1ccc(S(=O)(=O)N2CCC(C(=O)OCC(=O)Nc3cc(S(C)(=O)=O)ccc3Cl)CC2)cc1C,-10%
CCOc1cc(/C=N/NC(=O)C(=O)NC2CC2)cc(Br)c1O,1%
CCOc1ccc(C(=O)CC(Sc2ccc(C)cc2)C(=O)O)cc1 (centres undefined),?
COc1ccc(C(=O)N2CCCC(N3CCN(c4ccccc4F)CC3)C2)c(OC)n1 (centres undefined),?
O=C(CSc1nc2c(c(=O)[nH]1)CCC2)Nc1ccccc1C(F)(F)F,9%
CCN(CC)CCN1C(=O)C(=O)/C(=C(/O)c2c(C)[nH]c(C(=O)OC)c2C)C1c1cccc(OC)c1 (centres undefined),24%
C=CCn1c(C)csc1=Nc1ccc(C(=O)O)cc1,16%
CCOc1cc(N2CCOCC2)c(OCC)cc1NC(=O)COc1ncnc2ccc(Br)cc12,-6%
Cc1ccc(NC(=O)CN(C)C(=O)c2cccc(S(=O)(=O)N3CCCC3)c2)cc1,-10%
Cc1cc(NC(=O)C2CCCN(S(=O)(=O)c3ccc(Br)s3)C2)ccc1Br (centres undefined),2%
Cc1cc(NC(=O)C2CC=CCC2C(=O)O)ccc1NC(=O)c1ccccc1 (centres undefined),6%
CC(=O)c1c(C)oc2c1C(=O)c1ccccc1C2=O,-22%
O=C(CCc1nc(-c2ccccc2F)no1)Nc1cccc(C(F)(F)F)c1,-1%
CN(C)CC(O)c1ccc(C=Cc2ccc(Cl)cc2)cc1 (centres undefined),-4%
Cc1cccc(CN2CCC(CNc3ncnc4onc(-c5ccc(Cl)cc5)c34)CC2)c1,-11%
COC(=O)C1=C(C)N(c2ccc(F)cc2)/C(=C/c2ccc(O)cc2)C1=O,-20%
COC(=O)C1C(c2ccc(OC)cc2)Nc2nnc(C(F)(F)F)n2C1(C)O (centres undefined),-8%
CCCC(=O)OC1CCS(=O)(=O)c2sccc21 (centres undefined),-7%
CCC(=O)Nc1ccc(C(=O)CSc2nnc(-c3ccc(NS(=O)(=O)CC)cc3)o2)cc1OC,-10%
COc1ccc2cc(S(=O)(=O)Nc3ccccn3)ccc2c1,30%
Cc1ccc(CN2CCc3c(OCc4ccc(F)cc4)cccc3C2=O)cc1,-11%
Cc1cc(C(=O)N2CCc3ccccc3C2)no1,-15%

# In the list so far, 15 have a Cl atom.
SMILES,VDR inh
O=C(COC(=O)c1ccccc1Cl)NC1CCCCCCC1,5%
COC(=O)c1c(C)[nH]c(C)c1-c1ccccc1Cl,-5%
Nc1nc(-c2cc3c(cc2Cl)OCCO3)cs1,5%
COCCNCC1C(Oc2ccc(Cl)cc2)C(=O)N1c1ccccc1C (centres undefined),1%
COc1ccc2nc3oc(C(=O)N4CCN(c5cccc(Cl)c5)CC4)cc3cc2c1,11%
CCS(=O)(=O)c1nc(S(=O)(=O)c2ccc(Cl)cc2)c(N2CCC(O)CC2)s1,-1%
Cc1onc(-c2ccccc2Cl)c1C(=O)N1CCC(C)CC1,6%
Cc1cc(C(=O)CSc2nnc3c(Cl)cc(Cl)cn23)c(C)n1C,-5%
O=C1OC2(c3cc(I)c(O)c(I)c3Oc3c2cc(I)c(O)c3I)c2c(Cl)c(Cl)c(Cl)c(Cl)c21,5µM*
O=C(NCc1ccc(Cl)cc1)C1CCN(S(=O)(=O)c2ccc(N3CCCC3=O)cc2)CC1,4%
Cc1nc(NC(=O)/C=C/c2ccccc2)sc1C(=O)Nc1ccccc1Cl,-1%
CN(C)NC(=S)Nc1ccc(Cl)cc1,-8%
Cc1ccc(S(=O)(=O)N2CCC(C(=O)OCC(=O)Nc3cc(S(C)(=O)=O)ccc3Cl)CC2)cc1C,-10%
CN(C)CC(O)c1ccc(C=Cc2ccc(Cl)cc2)cc1 (centres undefined),-4%
Cc1cccc(CN2CCC(CNc3ncnc4onc(-c5ccc(Cl)cc5)c34)CC2)c1,-11%
